HPGD inh: qHTS Assay for Inhibitors of HPGD (15-Hydroxyprostaglandin Dehydrogenase) | purified HPGD, NADH fluorescence kinetic, PGE2 substrate | Potency, µM, for inactives: top-dose activity change, negative = inhibition, actives largely listed as inhibitors | 15-hydroxyprostaglandin dehydrogenase [NAD(+)] (Homo sapiens), P15428 | 4.3% of 150,000 active; active = well fitted inhibition curve with a large enough effect (not every such curve was filed as active); inconclusive = small, poorly fitted or top-dose-only effect, or another doubt; inactive = no such curve, though single readings can be large or run the other way;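 also: top concentration of the series not given in the record; plate controls included wells without enzyme; inactives centre near -10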
Target sequence (P15428 whole entry, looked up): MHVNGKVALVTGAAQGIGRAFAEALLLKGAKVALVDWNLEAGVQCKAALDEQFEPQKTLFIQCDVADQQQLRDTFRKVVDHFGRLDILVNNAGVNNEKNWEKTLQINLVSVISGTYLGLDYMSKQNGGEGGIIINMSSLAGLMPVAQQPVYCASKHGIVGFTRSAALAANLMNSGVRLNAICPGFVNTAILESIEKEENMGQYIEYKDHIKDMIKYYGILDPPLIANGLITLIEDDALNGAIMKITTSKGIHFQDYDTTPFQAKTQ
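20 nM HPGD preincubated 15 min at room temperature with compound in 50 mM Tris-HCl pH 8, 0.01% Tween 20. Started with 1 mM NAD+ and 30 uM prostaglandin E2; NADH fluorescence (360/450 nm) read 5 times over 30-s intervals, last minus first.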
* hit, by the source's call; ? = inconclusive; & = joins results of further samples; [ ] = remark or other dose. % is scaled to controls: 0 for no effect and ±100 for the full control effect; potency is read from the fitted curve at half-maximal effect. A portion of the library. The share of hits here may be higher or lower than overall.

SMILES | HPGD inh
O=C1c2ccccc2-c2c1cccc2C(=O)N1CCCCCC1 | -4%
CC(C)CN=C(NS(=O)(=O)c1ccccc1)C(Cl)(Cl)Cl | -7%
Cc1cccc(-n2c(SCC(=O)Nc3nonc3C)nnc2-c2ccoc2C)c1 | -5%
C[C@@H]1NC(=O)[C@H](CCCN=C(N)N)NC(=O)c2cc([N+](=O)[O-])cc(I)c2OCC[C@@H](C(=O)NC(CC(=O)O)C(N)=O)NC1=O (stereo not given in full) | -7%
CC(=O)c1cc(CN2CCCCC2)cc(OC(C)C)c1 | -13%
C=CCSc1ncc(C#N)c(N)n1 | -5%
CCNC(=O)c1sccc1-n1cccc1 | -3%
Brc1ccccc1-c1nnc(SCc2nc3ccccc3s2)o1 | ?
O=C(c1ccccc1)N1CCN(C2CC(=O)N(CCc3ccccc3)C2=O)CC1 (stereo not given) | -11%
COC(=O)Cn1c(=NC(=O)CSCC(=O)NC2CCCCC2)sc2cc(OC)ccc21 | -18%
N/C(CN1CCCC1=O)=N\OC(=O)c1ccc(Cl)c(Cl)c1 | -12%
COc1ccc(NC(=O)C2CC2)cc1NS(=O)(=O)c1ccc(F)cc1 | -16%
CC(C)CCNC(=O)CN(Cc1cccs1)C(=O)CCC(=O)Nc1nccs1 | -2%
Cc1ccc(-n2nnnc2C(=Cc2ccc(N(C)C)cc2)c2nnnn2-c2ccc(C)cc2)cc1 | -6%
CCOC(=O)c1oc2ccccc2c1NC(=O)COC | -20%
CC(C)c1[nH]nc2c1C(c1cccc(OC(=O)N3CCOCC3)c1)C(C#N)=C(N)O2 (stereo not given) | -14%
CCOC(=O)c1c(N2C(=O)Nc3ccccc3N2O)sc2c1CCCC2 | -12%
CCCN1C(=O)c2ccccc2NC1c1cc(OC)c(OC)c(OC)c1 (stereo not given) | ?
N#C/C(=C\c1ccc(O)c(O)c1)C(=O)OCCc1cccs1 | 28µM*
Cc1cc(C)nc(SCCc2cccc[n+]2C)n1 | -10%
COc1ccc2[nH]c(=O)c(CN(C(=O)c3ccccn3)c3ccccc3)cc2c1 | ?
C=CCN1C(=O)/C(=C2/Sc3ccccc3N2C)SC1=Nc1c(C)n[nH]c1C | -14%
CCCc1cc(C(N)=O)c(NC(=O)c2cc(C)on2)s1 | -15%
Nc1nnc(SCC(=O)NC23CC4CC(CC(C4)C2)C3)s1 | -19%
CCOC(=O)c1c(C)nc2ccccn12 | -11%

Among those listed so far, these have an aryl thioether with sulfur outside any ring.
SMILES | HPGD inh
Cc1cccc(-n2c(SCC(=O)Nc3nonc3C)nnc2-c2ccoc2C)c1 | -5%
C=CCSc1ncc(C#N)c(N)n1 | -5%
Brc1ccccc1-c1nnc(SCc2nc3ccccc3s2)o1 | ?
Cc1cc(C)nc(SCCc2cccc[n+]2C)n1 | -10%
Nc1nnc(SCC(=O)NC23CC4CC(CC(C4)C2)C3)s1 | -19%

Carrying on.
SMILES | HPGD inh
COC1[C@H](OC(N)=O)C(O)[C@H](Oc2ccc3c(O)c(NC(=O)c4ccc(O)c(CC=C(C)C)c4)c(=O)oc3c2C)OC1(C)C (stereo not given in full) | -15%
CCOC(=O)Cn1c(=O)c2c(nc(N3CCOCC3)n2C)n(C)c1=O | -7%
Nc1c(Br)cc2oc(-c3ccccc3)nc2c1Br | -4%
Oc1ccc(C=Nc2ccccc2-c2nc3ccccc3[nH]2)c(O)c1 | ?
CC1CN(S(=O)(=O)c2cccc(C(=O)OC/C(O)=C(\C#N)c3nc4ccccc4[nH]3)c2)CC(C)O1 (stereo not given) | -11%
CCCCOc1ccc(C(=O)CCN2CCCCC2)cc1 | -20%&-9%&-8%
CCOc1ccccc1NC(=O)CSc1nnc(-c2cnccn2)n1CC | -15%
CC(=O)c1cc2c(cc1NC(=O)CN1CCN(c3cccc(C(F)(F)F)c3)CC1)OCO2 | 56%[activator]
O=C(O)c1cc(C(F)(F)F)nc2c(C(F)(F)F)cccc12 | -6%
CC1CCCCN1CCCNC(=O)c1ccc(Cc2nc3ccccc3[nH]2)cc1 (stereo not given) | -2%
O=C(NCc1ccccc1)N(Cc1cc2cc3c(cc2[nH]c1=O)OCO3)CC1CCCO1 (stereo not given) | ?
CCOC(=O)C1=C(O)/C(=C/N(C)C)N=C1C | -8%
COc1cc(C2C(C(=O)c3ccc(C)o3)=C(O)C(=O)N2c2cc(C)on2)ccc1O (stereo not given) | -16%
CCOC(=O)C(C(=O)OCC)[C@@H]1CS(=O)(=O)C[C@H]1C(C(=O)OCC)C(=O)OCC | -4%
O=C1CC(c2ccccc2)C(C(=O)O)N1 (stereo not given) | -4%
CCn1c(C(c2ccccc2)c2ccccc2)n[nH]c1=S | -11%
O=C(Cn1ccc2ccccc2c1=O)NCC1COc2ccccc2O1 (stereo not given) | ?
O=C(Nc1ccccc1Sc1ccccc1)c1ccc(F)cc1 | -23%
CC(C)(C)c1nnc(N/N=C/c2ccccc2O)n(N)c1=O | -12%
O=S(=O)(NCC(c1ccco1)N1CCN(c2ccccc2F)CC1)c1ccc(F)cc1 (stereo not given) | -6%
Cc1noc(NS(=O)(=O)c2ccc(NC(=O)CSc3ncccn3)cc2)c1C | -6%
CCCCc1ccc(NC(=S)NN2CCOCC2)cc1 | -8%
O=C(NCCN1CCN(C(=O)c2cc3ccccc3oc2=O)CC1)c1cc2ccccc2oc1=O | ?
O=[N+]([O-])c1cc(S(=O)(=O)N2CCCC2)ccc1O | -9%
COc1ccc2c(Cl)c(-c3nnc4n3CCCCC4)sc2c1 | 1µM*
SMILES | HPGD inh
Cc1ccc(S(=O)(=O)N2CCOCC2)cc1NC(=O)COc1ncnc2ccccc12 | -8%
O=C1C(=Cc2cccn2-c2ccccc2)C(=O)c2ccccc21 | -10%
CCCCc1c(C)nc2ccc(C(=O)OCC)cc2c1Cl | -11%
Cc1cc(C(=O)OCC(=O)Nc2cc(C)on2)c2ccccc2n1 | -10%
CC1CC(C)CN(c2ncnc3c2cnn3Cc2ccc(Cl)cc2)C1 (stereo not given) | -11%
CCc1cc(C)cc(OCCNC(=O)c2cncc(Br)c2)c1 | -12%
CCOc1ccc(C(=O)Cc2ccc3oc(C(=O)O)cc3c2)c(O)c1 | 7.9µM*
CC(=O)NNc1nc2ccccc2s1 | -13%
CC(=C/c1ccccc1)/C=N/NC(=O)c1ccc2nc[nH]c2c1 | -17%
CCCOC(=O)c1c(NC(=O)C2CCCO2)sc(C(=O)OC)c1C (stereo not given) | 10µM*
COc1cc(C(=O)NCc2cn3ccccc3n2)cc(OC)c1OC | -3%
O=C(NCc1ccc2c(c1)OCO2)C1CC(=O)N(C2CCCCCC2)C1 (stereo not given) | -7%
CC(C)[C@H](Sc1nc(N)nc2nc[nH]c12)C(=O)O | -14%
CCOC(=O)c1oc2ccc(S(=O)(=O)N3CCOCC3)cc2c1C | -14%
CC1CC(C)CN(C(=O)CSc2nnc(-c3ccc(F)cc3)o2)C1 (stereo not given) | -24%
Cc1c(C(=O)c2ccc(Cl)cc2Cl)cnc2cc3c(cc12)OCO3 | ?
CC(C)CCNC(=O)c1cnn2c(C(F)(F)F)cc(-c3ccco3)nc12 | ?
CC(/C=C/c1ccco1)=N\NC(=O)C(O)c1ccccc1 (stereo not given) | -9%
O=C(NC(=S)N1CCN(Cc2ccc3c(c2)OCO3)CC1)c1cccc(Br)c1 | -7%
CC(C)C(C)(C#N)NC(=O)CSc1nc(C2CCCCC2)n(-c2ccccc2)n1 (stereo not given) | -2%
O=C(COc1ccccc1[N+](=O)[O-])N/N=C/c1ccc(O)cc1 | 3%
CC(=O)c1c(C)[nH]c(C(=O)N2CCCCCC2)c1C | 13µM*
O=C(c1ccc2c(c1)OCCCO2)c1cccs1 | 14µM*
Cc1ccc(/S(C)=N/S(=O)(=O)c2ccc(C)cc2)cc1 (stereo not given) | -8%
O=C(NCc1ccco1)Nc1ccc2snnc2c1 | ?

Entries from the list above that have a nitro group on carbon (3):
SMILES | HPGD inh
C[C@@H]1NC(=O)[C@H](CCCN=C(N)N)NC(=O)c2cc([N+](=O)[O-])cc(I)c2OCC[C@@H](C(=O)NC(CC(=O)O)C(N)=O)NC1=O (stereo not given in full) | -7%
O=[N+]([O-])c1cc(S(=O)(=O)N2CCCC2)ccc1O | -9%
O=C(COc1ccccc1[N+](=O)[O-])N/N=C/c1ccc(O)cc1 | 3%

Back to the main list with the seven entries that preceded the break.
SMILES | HPGD inh
O=C(NC(=S)N1CCN(Cc2ccc3c(c2)OCO3)CC1)c1cccc(Br)c1 | -7%
CC(C)C(C)(C#N)NC(=O)CSc1nc(C2CCCCC2)n(-c2ccccc2)n1 (stereo not given) | -2%
O=C(COc1ccccc1[N+](=O)[O-])N/N=C/c1ccc(O)cc1 | 3%
CC(=O)c1c(C)[nH]c(C(=O)N2CCCCCC2)c1C | 13µM*
O=C(c1ccc2c(c1)OCCCO2)c1cccs1 | 14µM*
Cc1ccc(/S(C)=N/S(=O)(=O)c2ccc(C)cc2)cc1 (stereo not given) | -8%
O=C(NCc1ccco1)Nc1ccc2snnc2c1 | ?
COC(=O)C1=C(C)N(CCc2ccc(OC)cc2)C(=O)C1 | -30%
CSc1nc(C)c2c(n1)OC(CN1C(=O)c3ccccc3C1=O)C2 (stereo not given) | -15%
Cn1cccc1C(=O)N1CCC2(CCN(Cc3ccncc3)CC2)CC1 | -1%
O=C1c2ccccc2C(=O)N1CCc1nc(-c2cccnc2)no1 | -4%
CN1CCN(C(=O)c2sc(=S)n(-c3ccccc3)c2N)CC1 | 7.9µM*
O=C(/C=C/c1ccc(Br)cc1)NCc1cccs1 | -11%
Cc1ccc2c(c1)C(c1ccccc1)N(C(=O)c1ccc(Br)o1)CC(=O)N2 (stereo not given) | -1%
CC(=O)c1ccc(N(C)C)cc1 | -8%
CCOc1ccc(CCNC(=O)C2CCN(C(=O)N(C)C)CC2)cc1OCC | 3%
COc1ccc(Cl)cc1NC(=O)C(=O)NC1CCCCCC1 | -19%
CCCC1(C(=O)OCC)NC(c2cc(OC)c(OC)c(OC)c2)C2C(=O)N(CC)C(=O)C21 (stereo not given) | 1%
N/C(=N\OC(=O)c1cc(-c2ccccc2)nc2ccccc12)c1ccc(Cl)cc1 | -20%
Cc1cccnc1NC(=O)c1ccccc1NC(=O)C(C)(C)C | -14%
COc1ccc(Nc2ccc3c(c2)=NC2(CCCCC2)[N+]=3[O-])cc1 | -16%
CC(C)(C)SCCNC(=O)c1ccccc1 | -17%
COc1ccccc1C/C(N)=N/OC(=O)COc1ccc(C)cc1 | -23%
CN(CC(=O)Nc1ccccn1)S(=O)(=O)c1ccc(Cl)cc1 | -22%
O=C(Nc1ccon1)c1cccc(S(=O)(=O)N2CCCCCC2)c1 | -17%
CCCS(=O)(=O)N1CCN(CC2CC=CCC2)CC1 (stereo not given) | 1%
O=c1[nH]c(=O)n(Cc2ccco2)c2c1C(C(F)(F)F)(C(F)(F)F)N=C(C1CCCCC1)N2 | ?
COc1ccc(S(=O)(=O)N2CCCCC2)cc1NC(=O)c1ccc2c(c1)OCO2 | -25%
CCCn1c(SCc2cc(=O)[nH]c3ccccc23)nc2c1c(=O)n(C)c(=O)n2C | -5%
CC(C)(C)C(=O)Nc1ccc(-c2cn3ccsc3n2)cc1 | 0%
CN(C)c1c([N+](=O)[O-])cc2[nH]c(=O)[nH]c2c1[N+](=O)[O-] | -28%
Cc1cc(Br)c(OCc2ccc(C(=O)N/N=C3\CC(=O)CC(C)(C)C3)cc2)c(Br)c1 | -7%
Cc1ccsc1/C=N/NC(=O)c1ccccn1 | -11%
CCOC(=O)c1cnc2cc3c(cn2c1=O)CCCC3 | ?
Cc1ccc(S(=O)(=O)N2CCC(C(=O)N3CCC[C@H]3C(=O)NC3CCS(=O)(=O)C3)CC2)cc1 (stereo not given in full) | -15%
CN1CCCN(C2C3CC4CC(C3)CC2C4)CC1 (stereo not given) | 3%

Quoted from the listing.
CC(C)(C)C(=O)Nc1ccc(-c2cn3ccsc3n2)cc1 in HPGD inh: 0%
Cc1ccsc1/C=N/NC(=O)c1ccccn1 in HPGD inh: -11%

High-throughput results (PubChem)
